UCH37 DUB inh – human UCH37 deubiquitinating enzyme inhibition; inhibition, % (concentration not given with the values); purified proteasome/UCH37, Ub-AMC cleavage fluorescence; actives 0.33% (n = 330,000);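 active = mean of two replicates above 20%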;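 also: 0% = compound-free wells with enzyme and 100% = wells lacking proteasome; stock transfer was 100 nL into about 20 µL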
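Signal – fluorescence, ex 355 nm, em 460 nm · System – Proteasome-bound UCH37 · Input – 0.15 nM proteasome as dispensed · Timing – 30 min preincubation with enzyme, 25 min cleavage at room temperature · Read-out basis – percent inhibition of cleavage signal versus uninhibited and no-proteasome wells · Medium – Tris-HCl pH 7.4 with ATP-MgCl2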
E coli growth – E. coli growth inhibition; Escherichia coli growth, OD600, 23 h; stronger effect = lower value; OD600 absorbance (concentration not given with the values); actives 0.21% (n = 330,000); AID 1053175;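 active = OD600 absorbance below the run mean of sample wells minus 3.6 SD, in any replicate, cut at about 0.56 in these data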;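 also: stock transfer was 300 nL into about 60 µL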
FGF22 binding – FGF22 (human) thermal shift binding. AID 651658. Q9HCT0. calls only at 9.99 µM. recombinant FGF22 thermal shift, SYPRO orange fluorescence; percent of sucrose octasulfate shift, DMSO zero. actives 1.5% (n = 340,000);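 active = melting point raised past a set limit in the mean and every replicate; inconclusive = no clear call; three in four hits are not shown here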
Target sequence (Q9HCT0 whole entry, looked up): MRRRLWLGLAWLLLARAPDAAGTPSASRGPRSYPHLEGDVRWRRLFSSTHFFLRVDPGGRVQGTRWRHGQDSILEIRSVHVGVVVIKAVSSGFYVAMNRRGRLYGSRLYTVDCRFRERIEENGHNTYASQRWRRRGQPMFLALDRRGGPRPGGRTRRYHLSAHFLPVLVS
Vif A3G – inhibitors of Vif binding to APOBEC3G peptide, primary screen, biochemical, TR-FRET, GST-Vif 1-94, biotin-A3G peptide, dose response retest (AID 1117319) | TR-FRET GST-Vif / biotin-A3G peptide binding; higher % means a stronger effect; test concentration not given here; strong numbers were not always called active | one-dose inhibition, %; IC50 in µM for titrated hits | actives 0.57% (n = 260,000);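 active = above the screen mean plus three standard deviations and confirmed in dose response; inconclusive = results disagree or hit not tested in dose response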;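 also: Vif residues 1-94 fused to GST binding biotinylated APOBEC3G peptide 110-148; 0% = full assay without inhibitor and 100% = GST in place of GST-Vif; retest series ran down from 100 µM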
MLL AF4-AF9 inh – blocks AF4 peptide binding to human AF9. AlphaScreen, biotin-AF4 peptide binding to FLAG-AF9. AID 651704. P42568. actives 0.47% (n = 350,000). inhibition, % at 10 µM;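 active = every replicate reaching a set inhibition limit, whatever the replicate mean, cut at about 25% in these data; inconclusive = mean inhibition reaches that limit but some replicates miss it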;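 also: 0% = plate neutral control median and 100% = total signal loss; the record names both 10 and 1 µM as test concentration; the first replicate is given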
Target sequence (P42568 whole entry, looked up): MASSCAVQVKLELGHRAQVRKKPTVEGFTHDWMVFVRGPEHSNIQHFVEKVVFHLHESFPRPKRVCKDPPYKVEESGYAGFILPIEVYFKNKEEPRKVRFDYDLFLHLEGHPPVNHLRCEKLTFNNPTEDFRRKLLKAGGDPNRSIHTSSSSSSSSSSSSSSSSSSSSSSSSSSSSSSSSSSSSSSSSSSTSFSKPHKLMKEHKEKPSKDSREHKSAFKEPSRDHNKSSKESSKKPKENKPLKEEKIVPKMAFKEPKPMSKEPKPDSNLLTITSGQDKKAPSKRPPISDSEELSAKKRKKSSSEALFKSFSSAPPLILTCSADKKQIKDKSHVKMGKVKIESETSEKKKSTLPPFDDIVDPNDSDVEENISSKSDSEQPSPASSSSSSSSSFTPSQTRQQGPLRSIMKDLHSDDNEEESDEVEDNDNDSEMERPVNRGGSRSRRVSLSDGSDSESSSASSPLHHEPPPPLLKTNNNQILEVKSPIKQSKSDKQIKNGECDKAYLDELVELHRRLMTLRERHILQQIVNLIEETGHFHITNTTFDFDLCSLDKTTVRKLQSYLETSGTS
HNF4A DNA FP – change in binding of human HNF4 alpha to DNA | activity change, % at 10 µM | actives 0.3% (n = 360,000) | HNF4a-FITC DNA binding, fluorescence polarization, 1 h | P41235; in the data active = activity change above about 30%, passing the limit was not always enough;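 also: controls were the assay level and a saturating level of protein; the project sought stronger binding though the title names inhibitors; some compounds called inactive have numbers as strong as hits; positive values seem to mean higher polarization but the record does not say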
RanGTP-Imp inh – disruptors of Ran-importin-beta complex formation – biochemical, FRET, CFP-Ran, YFP-importin-beta, homogeneous, primary screen; cell-free CFP-Ran/YFP-importin-beta FRET ratio; inhibition, % (concentration not given with the values); actives 1.1% (n = 300,000);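 active = most replicates above 15%; inconclusive = exactly half above 15%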;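 also: 0% = DMSO wells and 100% = Ran loaded with GDP instead of GTP; wells of about 40 µL received 100 nL stock; the first replicate is given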
The depositor's hits bear a star; i = inactive; ? = inconclusive; . = not tested or not shown. An excerpt. The share of hits here may be higher or lower than overall.

Screens by letter: A = UCH37 DUB inh; B = E coli growth; C = FGF22 binding; D = Vif A3G; E = MLL AF4-AF9 inh; F = HNF4A DNA FP; G = RanGTP-Imp inh
1. O=C(Nc1ccc(Cl)cn1)c1cccc(S(=O)(=O)N2CCOCC2)c1
  A = 5.3; B = 0.69; C = .; D = ?; E = .; F = -0.4; G = ?
2. Cc1ccccc1S(=O)Cc1ccc(C(=O)NCCN2CCOCC2)o1 (stereo not drawn)
  A = 0.8; B = 0.67; C = i; D = -2%; E = 1.8; F = -2.4; G = -1.3
3. COC(=O)c1ccc(COc2ccc(C(=O)c3ccccc3)cc2)o1
  A = -1.3; B = 0.69; C = i; D = .; E = -0.7; F = -0.6; G = -3.9
4. CCC(=O)N1CCN(c2ccc(Cl)cc2NC(=O)c2cccc([N+](=O)[O-])c2)CC1
  A = 3.0; B = 0.67; C = i; D = -13%; E = -5.0; F = 3.6; G = 1.2
5. CCOC(=O)Cn1ccc(-c2ccccc2)c(C#N)c1=O
  A = -14; B = 0.68; C = i; D = .; E = -2.0; F = -3.6; G = ?
6. CCn1c(SCc2ccc(C)cc2)nnc1-c1nn(-c2ccccc2)ccc1=O
  A = 2.9; B = 0.78; C = .; D = 18%; E = .; F = 0.8; G = 0.4
7. COc1ccc(C(C)(C)C)cc1NC(=O)COC(=O)CN1C(=O)NC2(CCCCC2C)C1=O (stereo not drawn)
  A = -2.9; B = 0.66; C = i; D = -2%; E = 1.2; F = -4.4; G = .
8. Cc1ccc(NS(=O)(=O)c2ccc(C(=O)NC3CCN(Cc4ccccc4)CC3)cc2)cc1
  A = 0.6; B = 0.7; C = i; D = -14%; E = 8.6; F = 0.1; G = .
9. Cc1sc2nc(CN(C(=O)NC3CCCCC3)C3CCCC3)[nH]c(=O)c2c1C
  A = 2.4; B = 0.65; C = i; D = -31%; E = 0.4; F = -1.3; G = 1.5
10. O=C1ON=C(c2ccccc2)/C1=C/c1ccco1
  A = 5.5; B = 0.71; C = i; D = ?; E = -4.1; F = -1.9; G = 0.1
11. C=CCOc1c(Cl)cc(CNCCC)cc1Cl
  A = 3.5; B = 0.68; C = .; D = 0%; E = .; F = -1.8; G = -1.7
12. CN(CC(=O)Nc1ccccc1Cl)C(=O)CSc1nc2ccccc2s1
  A = 3.3; B = 0.65; C = i; D = .; E = -7.2; F = -1.8; G = -6.3
13. CC(=O)N(C(C)=O)c1ncnc2c1c(-c1ccc(Cl)cc1)nn2C(C)(C)C
  A = -116; B = 0.68; C = i; D = -6%; E = -11; F = 5.2; G = 5.3
14. CCN(CC)S(=O)(=O)c1cc(NC(=O)CCCOc2ccc(C(C)=O)cc2)ccc1C
  A = -0.3; B = 0.72; C = i; D = -8%; E = -1.1; F = 2.8; G = 1.5
15. O=C(O)CCC(=O)CCC(=O)c1ccccc1
  A = 3.9; B = 0.67; C = .; D = -5%; E = .; F = -0.1; G = 2.9
16. COc1ccc(CC(=O)Nc2ccc(-c3noc(COc4ccccc4C)n3)cc2)cc1
  A = 2.4; B = 0.83; C = .; D = -2%; E = .; F = 1.7; G = 6.0
17. CCCCN(C(=O)c1cccc(S(=O)(=O)N2CCOCC2)c1)c1c(N)n(CCC)c(=O)[nH]c1=O
  A = 7.2; B = 0.69; C = i; D = 17%; E = -14; F = -1.0; G = 2.9
18. NC(=S)N/N=C/c1cccc(Br)c1
  A = .; B = .; C = i; D = 1%; E = 0.5; F = -0.2; G = 3.6
19. C[C@H](O)[C@@H]1C(=O)N2CCc3ccc(-c4cccc(F)c4)cc3[C@@H]2C[C@@H]1N(C)C(=O)C(C)(C)C
  A = .; B = .; C = i; D = -6%; E = 2.5; F = -7.8; G = .
20. Cc1nnc(SCC(=O)NC2CCCCC2)n(N)c1=O
  A = 3.7; B = 0.75; C = i; D = 2%; E = 6.1; F = 3.6; G = 1.4
21. CCCN(c1ccc(OCC)cc1)S(=O)(=O)c1ccc2c(c1)NC(=O)CO2
  A = 4.4; B = 0.69; C = i; D = .; E = -10; F = 6.5; G = -1.2
22. Cc1ccc([N+](=O)[O-])cc1NC(=O)CCc1ccccc1
  A = 2.9; B = 0.69; C = i; D = 3%; E = -2.0; F = -0.6; G = -1.0
23. O=C(c1ccc(Cl)cc1Cl)N1CCC(c2nc3c(nnn3Cc3ccco3)c(=O)[nH]2)CC1
  A = 4.5; B = 0.68; C = .; D = 12%; E = .; F = 3.1; G = 4.7
24. O=C(Nc1cccnc1)c1coc(=O)c2ccccc12
  A = -11; B = 0.7; C = .; D = -3%; E = .; F = 9.8; G = -5.9
25. CC(/C=N/NC(=O)c1ccncc1)=C\c1ccc(C(C)C)cc1
  A = .; B = .; C = .; D = -7%; E = .; F = 1.7; G = 0.6
26. O=C(NCc1cccnc1)/C(=C\c1ccc(-c2ccc(Br)cc2)o1)S(=O)(=O)c1ccccc1
  A = 0.9; B = .; C = i; D = .; E = 16; F = 0.0; G = -0.4
27. CC(=O)N1CCN(c2ccccc2NC(=O)COc2cc(C)cc(C)c2)CC1
  A = 1.9; B = 0.65; C = .; D = .; E = -2.3; F = 2.4; G = 0.9
28. COc1ccc(NC(=O)c2ccc3nc[nH]c3c2)c(OC)c1
  A = 3.2; B = 0.72; C = .; D = -12%; E = 4.4; F = -0.3; G = 0.0
29. O=C(CCN1C(=O)COc2ccccc21)NCc1cccs1
  A = -0.7; B = 0.64; C = .; D = 4%; E = .; F = 0.6; G = 0.6
30. O=C(NC12CC3CC(CC(C3)C1)C2)c1cc(F)c(F)c(F)c1F
  A = 1.2; B = 0.63; C = i; D = -3%; E = -0.7; F = 0.4; G = 0.4
31. CC(CCn1cccn1)NC(=O)c1cc(COc2ccc(F)cc2Cl)on1 (stereo not drawn)
  A = 1.4; B = 0.7; C = .; D = .; E = -0.2; F = -0.3; G = 7.4
32. CCNC(=S)N(Cc1cc2cc(C)ccc2[nH]c1=O)C1CCCC1
  A = -2.6; B = 0.7; C = .; D = -3%; E = .; F = -2.2; G = -4.8
33. CCOC(=O)C1=C(C)N=c2s/c(=C\c3ccc(C(=O)O)cc3)c(=O)n2C1c1ccc(OC)cc1OC (stereo not drawn)
  A = .; B = .; C = i; D = .; E = 3.0; F = 1.5; G = 2.0

12 entries already listed, sorted by length of the SMILES, highest first:
Screens by letter: A = UCH37 DUB inh; B = E coli growth; C = FGF22 binding; D = Vif A3G; E = MLL AF4-AF9 inh; F = HNF4A DNA FP; G = RanGTP-Imp inh
19. C[C@H](O)[C@@H]1C(=O)N2CCc3ccc(-c4cccc(F)c4)cc3[C@@H]2C[C@@H]1N(C)C(=O)C(C)(C)C
  A = .; B = .; C = i; D = -6%; E = 2.5; F = -7.8; G = .
33. CCOC(=O)C1=C(C)N=c2s/c(=C\c3ccc(C(=O)O)cc3)c(=O)n2C1c1ccc(OC)cc1OC (stereo not drawn)
  A = .; B = .; C = i; D = .; E = 3.0; F = 1.5; G = 2.0
17. CCCCN(C(=O)c1cccc(S(=O)(=O)N2CCOCC2)c1)c1c(N)n(CCC)c(=O)[nH]c1=O
  A = 7.2; B = 0.69; C = i; D = 17%; E = -14; F = -1.0; G = 2.9
4. CCC(=O)N1CCN(c2ccc(Cl)cc2NC(=O)c2cccc([N+](=O)[O-])c2)CC1
  A = 3.0; B = 0.67; C = i; D = -13%; E = -5.0; F = 3.6; G = 1.2
14. CCN(CC)S(=O)(=O)c1cc(NC(=O)CCCOc2ccc(C(C)=O)cc2)ccc1C
  A = -0.3; B = 0.72; C = i; D = -8%; E = -1.1; F = 2.8; G = 1.5
25. CC(/C=N/NC(=O)c1ccncc1)=C\c1ccc(C(C)C)cc1
  A = .; B = .; C = .; D = -7%; E = .; F = 1.7; G = 0.6
5. CCOC(=O)Cn1ccc(-c2ccccc2)c(C#N)c1=O
  A = -14; B = 0.68; C = i; D = .; E = -2.0; F = -3.6; G = ?
29. O=C(CCN1C(=O)COc2ccccc21)NCc1cccs1
  A = -0.7; B = 0.64; C = .; D = 4%; E = .; F = 0.6; G = 0.6
20. Cc1nnc(SCC(=O)NC2CCCCC2)n(N)c1=O
  A = 3.7; B = 0.75; C = i; D = 2%; E = 6.1; F = 3.6; G = 1.4
10. O=C1ON=C(c2ccccc2)/C1=C/c1ccco1
  A = 5.5; B = 0.71; C = i; D = ?; E = -4.1; F = -1.9; G = 0.1
15. O=C(O)CCC(=O)CCC(=O)c1ccccc1
  A = 3.9; B = 0.67; C = .; D = -5%; E = .; F = -0.1; G = 2.9
11. C=CCOc1c(Cl)cc(CNCCC)cc1Cl
  A = 3.5; B = 0.68; C = .; D = 0%; E = .; F = -1.8; G = -1.7
